# TRPML1 inh – qHTS for Inhibitors of the Human Mucolipin Transient Receptor Potential 1 (TRPML1); Mucolipin-1 (Homo sapiens), Q9GZU1; TRPML1-inducible cells, Ca2+ dye fluorescence, FDSS; stronger effect = lower value; inhibition of EC80 agonist-evoked calcium signal; activity change, negative = inhibition, % (test concentration not listed); 390,000 tested, 0.02% active; in the data active means activity change below about -50%; inconclusive means about -30% to -50%; inactive means above about -30%;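 note: stimulus is agonist 54-4 at its EC80 concentration; % is set by controls: 0 for no effect and ±100 for the full control effect; compound concentration not given in the record; the text of the record puts the active cut at -80%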
#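 TRPML1-DL cells, Tet-induced overnight (~16 h, 37 °C) at 1,500 cells/well, were loaded with Ca8 no-wash dye plus quencher for 45-90 min at room temperature. Compounds were pinned during FDSS kinetic reading; agonist 54-4 at EC80 (4 uM final) then added.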
# Menin-MLL FL inh – qHTS Assay for Inhibitors Targeting the Menin-MLL Interaction in MLL Related Leukemias: Competition With Fluorescein Labeled MLL-derived Peptide; FP activity change, % at 61.4 µM; 290,000 tested, under 10 active; AID 1766, 2009; Fluorescence polarization, fluorescein-MLL peptide displacement from menin; inconclusive = falling polarisation curve, or a change in total fluorescence; inactive = total fluorescence flat and polarisation flat or rising; no compound was filed as active; the % refers to the polarisation; negative = inhibition;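 note: % of control where 0% means no effect; inhibitors lower the polarisation; unlabelled MLL peptide was the positive control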
# TRPV1 potentiator – HTS Assay for Compounds that Act as Potentiators of the Vanilloid Receptor 1. 320,000 tested, 0.02% active. potentiation, % at 8.33 µM. Transient receptor potential cation channel subfamily V member 1 (Homo sapiens), Q8NER1. TRPV1-expressing cells, Fluo-8 calcium influx, capsaicin EC20 potentiation; host cell line not named in the record; control for the full effect not named in the record. AID 540277, 2011; active means potentiation above 80%; inconclusive means 30% to 80%; inactive means below 30%; note: 0% is about no effect
# Target sequence (Q8NER1 whole entry, looked up): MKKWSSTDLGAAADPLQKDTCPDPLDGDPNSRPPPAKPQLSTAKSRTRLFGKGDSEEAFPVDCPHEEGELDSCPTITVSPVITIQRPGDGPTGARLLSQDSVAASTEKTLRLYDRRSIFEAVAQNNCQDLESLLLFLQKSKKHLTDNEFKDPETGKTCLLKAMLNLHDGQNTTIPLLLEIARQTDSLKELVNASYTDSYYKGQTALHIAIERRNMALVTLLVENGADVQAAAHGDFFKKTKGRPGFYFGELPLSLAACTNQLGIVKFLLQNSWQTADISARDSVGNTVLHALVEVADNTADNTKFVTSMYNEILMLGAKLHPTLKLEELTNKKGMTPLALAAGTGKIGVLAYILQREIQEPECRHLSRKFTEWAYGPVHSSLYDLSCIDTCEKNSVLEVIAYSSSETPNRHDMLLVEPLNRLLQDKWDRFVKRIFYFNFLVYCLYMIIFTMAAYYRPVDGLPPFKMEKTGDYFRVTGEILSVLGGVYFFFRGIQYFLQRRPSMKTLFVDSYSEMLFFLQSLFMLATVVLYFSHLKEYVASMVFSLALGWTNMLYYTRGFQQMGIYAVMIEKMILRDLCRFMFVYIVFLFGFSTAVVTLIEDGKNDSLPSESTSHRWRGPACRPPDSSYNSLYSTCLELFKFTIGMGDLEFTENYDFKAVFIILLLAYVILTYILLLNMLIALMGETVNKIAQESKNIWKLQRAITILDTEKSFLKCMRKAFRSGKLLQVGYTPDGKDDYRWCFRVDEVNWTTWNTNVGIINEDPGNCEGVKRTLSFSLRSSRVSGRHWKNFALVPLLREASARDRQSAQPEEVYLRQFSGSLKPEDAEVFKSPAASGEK
#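 Cells expressing TRPV1 were dye-loaded with Fluo-8 and read kinetically: 10 s baseline, 3 min after compound (agonist portion), then 2 min after EC20 capsaicin (allosteric enhancer portion). Calcium-bound dye fluorescence at 480/520 nm.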
# ClpP mod – qHTS Assay for Activators of ClpP. AID 651965, 2013. Potency, µM (highest dose often 57.5 µM), without a hit: at the highest dose activity change, negative = active. purified B. subtilis ClpP, FRET peptide cleavage, 20 min. 340,000 tested, 1.9% active. ATP-dependent Clp protease proteolytic subunit (Bacillus subtilis (strain 168)), P80244; active = well fitted falling curve with a large enough effect; inconclusive = small, poorly fitted or top-dose-only effect; inactive = no such curve, though single readings can be large or run the other way; note: potency is the fitted concentration of half-maximal effect; the source files actives as falling curves though it sought activators and does not explain the sign; nearly all actives have a fitted effect of over 65% in size; many hits overshoot -100%
# Target sequence (P80244 whole entry, looked up): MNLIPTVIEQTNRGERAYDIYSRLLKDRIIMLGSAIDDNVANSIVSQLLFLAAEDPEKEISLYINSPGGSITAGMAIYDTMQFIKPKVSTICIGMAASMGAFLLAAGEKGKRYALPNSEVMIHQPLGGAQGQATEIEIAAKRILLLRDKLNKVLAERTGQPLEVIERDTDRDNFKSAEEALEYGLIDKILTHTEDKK
#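 Buffer: 100 mM Tris/HCl pH8, 100 mM KCl, 0.05% low protease BSA, 2.5% glycerol, 0.01% Tween-20. ClpP 10 microg/mL final; 20 min RT; delta FRET normalized to ADEP and DMSO controls.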
# PINK1 modulator – A Quantitative High throughput Screen to Identify Chemical Modulators of PINK1 Expression; 410,000 tested, 0.2% active; AID 624263, 2012; Potency, µM (top dose mostly 76.6 µM), for inactives: top-dose activation (PINK1 increase), actives largely listed as activators; PINK1 immunofluorescence, high-content cytometry, 24 h; active = well fitted activation curve with a large enough effect; inconclusive = small, poorly fitted or top-dose-only effect; inactive = flat fitted curve, though single readings scatter; cell line not stated here;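 note: potency is the fitted concentration of half-maximal effect; % of control where 0% means no effect; nearly all actives have a fitted effect of over 65% in size; a mitochondrial uncoupler was the plate control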
#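 PINK1 protein level read as immunofluorescence by microplate cytometer in a fixed, stained stable cell line after 24 h exposure to five compound concentrations, with CCCP as control.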
# TRPML1 agonist – qHTS for Agonists of the Human Mucolipin Transient Receptor Potential 1 (TRPML1) | Mucolipin-1 (Homo sapiens), Q9GZU1 | 410,000 tested, 0.12% active | activation, % (no concentration beside the values) | TRPML1-expressing cells, Ca2+ dye fluorescence, FDSS; host cell line not named in the record; reference of the full effect not given here; in the data active = activation above about 50%; inconclusive = about 30% to 50%; inactive = below about 30%; note: 0% is about no effect; the text of the record puts the active cut at 80%
#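 TRPML1-DL cells, Tet-induced overnight (~16 h, 37 degrees C), loaded 45-90 min at room temperature with Ca8 no-wash calcium dye plus quencher. FDSS fluorescence: 10 s baseline, compound pin-transfer, 110 s agonist read, then EC80 54-4 (4uM final) and 110 s antagonist read.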
# Sfp inh – qHTS Assay for Inhibitors of Bacillus subtilis Sfp phosphopantetheinyl transferase (PPTase); 310,000 tested, 3.5% active; 4'-phosphopantetheinyl transferase ffp (Bacillus subtilis), Q9F4F7; Potency, µM, for the others: max response, negative = inhibition, actives largely listed as inhibitors; Biochemical Sfp PPTase activity, qHTS; active = well fitted inhibition curve with a large enough effect; inconclusive = small, poorly fitted or top-dose-only effect, or another doubt; inactive = no such curve, though single readings can be large or run the other way;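 note: the enzyme is Sfp with the accession as filed and its product quenches rhodamine fluorescence; potency is the fitted concentration of half-maximal effect; 0% = enzyme reaction without inhibitor and -100% = no enzyme wells; top concentration of the series not given in the record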
#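 After 15 min at room temperature with compound, 15 nM Sfp received 5 uM rhodamine-CoA plus 12.5 uM BHQ-2-ybbR (50 mM Hepes pH 7.6, 10 mM MgCl2). Rate came from the fluorescence difference over 30 min, ex 525/em 598 nm.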
# An asterisk follows results filed as active; ? = inconclusive; . = not tested or not shown; & = joins results of further samples; [ ] = another dose, or the depositor's remark. Rows are unselected, and some 4.4% of all compounds hit somewhere here.
SMILES,TRPML1 inh,Menin-MLL FL inh,TRPV1 potentiator,ClpP mod,PINK1 modulator,TRPML1 agonist,Sfp inh
CC1(O)N(Cc2ccccc2)C(=O)OC12CCCCC2 (configuration not stated),-9,1.7,-10,-0.2%,?,-0.3,11%
O=C(COC(=O)CN=C1NS(=O)(=O)c2ccccc21)Nc1ccccc1OC(F)F,-4,-0.6,5,-17%,1.4%,1.0,23%
CCCCn1c(CN(C)Cc2ccccc2)nc2c1c(=O)n(C)c(=O)n2C,14,5.6,2,-1.9%,-3.1%,-0.3,-7%
Cc1c(N)cccc1N,-10,.,-2,0.3%,1.6%,-0.2,.
CCCc1nc(SCC(=O)Nc2nnc(SCC)s2)c2c(=O)n(C)c(=O)n(C)c2n1,-6,-6.1,13,0.9%,-0.1%,-0.1,-16%
Cc1cccc(C(=O)NNC(=O)C23CC4CC(CC(C4)C2)C3)c1O,-11,2.2,5,-0.7%,1.1%,-1.0,5%
CC(=O)c1c(C)nc(-c2ccc(OCC(=O)Nc3ccc(F)cc3)cc2)n1O,8,-3.2,8,-2.0%,-0.9%,2.8,13%
C=CCn1c(SCC#N)nc2c(c1=O)C(C)(C)Cc1ccccc1-2,7,15,-14,-3.6%,-2.2%,2.3,2%
C/C(CC(=O)C(F)(F)F)=N\NC(=O)/C(C#N)=C/N(C)C,18,0.7,-6,-1.6%,0.9%,0.5,11%
Cc1cc(C)cc(N(CC(=O)NC2CCCC2)C(=O)CCC(=O)Nc2cc(C)on2)c1,7,4.3,-4,0.4%,0.8%,-0.4,11%
CCOC(=O)c1c[nH][nH]c1=O,-2,?,?,-0.5%,-0.4%,0.7,14%
COCc1cc(=O)n2[nH]c(C)c(-c3ccc(Cl)cc3)c2n1,-2,.,.,4.1%,1.8%,-0.9,.
CC(=O)c1ccc(Nc2nc(C(C)N)cs2)cc1 (configuration not stated),.,.,.,-5.6%,0.9%,-0.1,.
COc1cc(CCN=Cc2ccccc2O)c([N+](=O)[O-])cc1OC,.,.,.,3.8%,0.9%,-0.5,.
Cc1ccc(NC(=O)CSc2nnc(CNC(=O)c3cccs3)o2)c(C)c1,-6,-2.5,15,-1.3%,-0.4%,0.0,18%
CCOc1ccc(N2CC(C(=O)Nc3ccc(S(=O)(=O)Nc4nccs4)cc3)CC2=O)cc1 (configuration not stated),-5,.,1,.,0.8%,0.1,11%
CCCc1c(C(=O)N/N=C/c2ccc(OCc3ccc(F)cc3)cc2)nnn1-c1nonc1N,-2,.,.,?,2.2%,0.5,.
CS(=O)(=O)c1nc(-c2ccc(Br)cc2)n[nH]1,5,-0.1,4,0.7%,2.1%,-1.0,23%
CCCN(CCC)CCCNC(=O)c1cc2c(=O)n(C)c3ccccc3c2n1C,-3,7.3,.,4.1%,8.2%,0.3,11%
COc1ccc(NC(=O)O/N=C/c2ccc(Br)cc2)cc1,11,5.6,14,.,0.2%,2.3,-11%
CCOc1cc(-c2ccc(OC(=O)c3ccccc3F)cc2)cc(=O)c2c(C)oc(C)c12,-3,.,.,-2.8%,0.0%,0.8,.
C#Cc1ccc(CN2CCN(CCc3ccccc3)C(CCO)C2)cc1 (configuration not stated),3,-3.9,0,-0.6%,1.0%,0.6,-4%
Cc1[nH]c2ccccc2c1C(=O)COC(=O)c1ccc([N+](=O)[O-])s1,-2,1.9,-11,3.9%,1.3%,-0.4,13%
CC1CN(C(=O)c2ccc(COCC(F)(F)F)o2)CC(C)O1 (configuration not stated),3,0.1,11,0.6%,1.9%[38.3 µM],0.3,-2%
Cc1cccc(OC(=O)Cn2c(C(F)(F)F)nc3ccccc32)c1,21,-0.8,0,-6.0%,0.7%,1.4,-10%
CN(CCN(C)C(=O)c1[nH]cnc1C(=O)Nc1ccccc1)C(=O)c1[nH]cnc1C(=O)Nc1ccccc1,-1,.,.,-0.3%,-1.2%,-0.6,.
Nc1nnc(-c2cccc([N+](=O)[O-])c2)s1,4,-3.4,-44,.,-1.3%,0.0,16%
O=C(CN(Cc1cccs1)C(=O)CNS(=O)(=O)c1ccc(Cl)cc1)NCC1CCCO1 (configuration not stated),11,3.9,-5,.,2.4%,1.0,4%
CCOC(=O)c1cnn(-c2cc(Oc3ccccc3)ncn2)c1N,-16,3.4,-2,-9.9%,4.3%,-0.1,23%
COc1ccc(S(=O)(=O)N2CCC(C(=O)N[C@H](C(=O)NCc3ccncc3)C(C)C)CC2)cc1,15,.,-10,-0.3%,-0.5%,-0.6,11%
CCCn1cnnc1CNC(=O)C1CCC(=O)N(CCc2ccc(OC)cc2)C1 (configuration not stated),-9,0.5,6,-1.8%,-0.9%,-0.5,20%
CC(=O)NCCc1nc2cc(NS(=O)(=O)c3ccccc3)ccc2n1C,5,-0.9,1,0.8%,2.1%,-1.6,14%
O=C(Nc1ccc2nc(N3CCOCC3)sc2c1)c1ccc(F)cc1,11,.,-8,13%,5.1%,1.8,.
COc1ccc(S(=O)(=O)Nc2cccc3cccnc23)c(N)c1,-8,.,14,.,0.9%,2.9,.
O=C(Nc1ccccn1)C1CCN(C(=O)Nc2ccccc2)CC1,1,.,-16,-0.1%,-0.8%,0.0,.
Cn1c(=O)[nH]c(=O)c2c1nc(SCCN1CCCCC1)n2CCCc1ccccc1,4,1.4,-5,1.4%,-1.4%,6.0,3.5µM*
CC(C)COc1ccc(C(=O)N(Cc2ccc(N(C)C)cc2)Cc2ccco2)cc1,-16,.,.,-11%,3.0%,0.0,.
Cc1cccn2c(=O)c3cc(C(=O)NCCc4ccccc4)c(=N)n(CCCn4ccnc4)c3nc12,7,1.7,4,18µM*,2.2%,-0.8,9%
COc1ccccc1-c1csc(C(NC(C)=O)c2cccc(F)c2)n1 (configuration not stated),.,.,.,-0.8%,6.4%,-1.0,.
O=C1C=C(c2ccnc3cc(Cl)ccc23)C[C@@H](c2ccc3c(c2)OCO3)C1,-7,.,1,-0.5%,-0.1%,1.2,.
CCn1c2ccccc2c2cc(NC(=O)COC(=O)c3ccccc3Br)ccc21,-19,6.9,-4,-3.1%,-1.0%,-1.0,10%
COc1ccc(CCN2C(=O)CC(NNC(=O)c3cccc(O)c3)C2=O)cc1 (configuration not stated),-23,3.3,-15,-4.1%,1.1%,0.9,-10%
CC1CCCCN1C(=O)c1ccc(S(=O)(=O)N2CCCCC2C)cc1 (configuration not stated),5,4.5,15,-0.8%,-1.6%,1.2,15%
CN(C)C(=O)N1CCC(C(=O)N2CCCC(C(=O)c3cccc4ccccc34)C2)CC1 (configuration not stated),-6,-3.1,-5,.,2.0%,-0.5,7%
CCCC1OC23CCCCC2C(C#N)(C(=N)O3)C1(C#N)C#N (configuration not stated),10,-26,12,?,0.1%,1.8,-11%
CCOC(=O)c1cccc(NS(=O)(=O)c2cc(Br)cc3c2N(C(=O)C2CC2)CC3)c1,-8,.,.,0.3%,0.7%,-0.4,.
O=[N+]([O-])c1ccccc1S(=O)(=O)N1CCN(c2nc(-c3ccccc3)nc3ccccc23)CC1,.,.,.,-2.2%,0.6%,0.3,.
O=C1CC(Cc2ccc(Cl)cc2)C(=O)N1c1ccccn1 (configuration not stated),-5,8.5,27,0.0%,-0.1%,0.4,9%
O=C(COC(=O)/C=C/c1ccc(C(F)(F)F)cc1)NCCC1=CCCCC1,6,-2.2,-11,0.5%,0.2%,1.4,9%
CC(=O)N1CCN(C2=NC(=O)/C(=C/c3ccc(OS(=O)(=O)c4ccccc4)cc3)S2)CC1,-8,-0.8,-12,-0.1%,1.7%,-0.3,-3%
# Other compounds:
SMILES,TRPML1 inh,Menin-MLL FL inh,TRPV1 potentiator,ClpP mod,PINK1 modulator,TRPML1 agonist,Sfp inh
Cc1cccc(C(=O)Nc2cc(C)ccc2NC(=O)COc2ccccc2)c1,52,-8.7,-2,-3.7%,4.2%,1.1,-1%
O=C(Nc1ccc(Cl)cc1)NC1CCCCNC1=O (configuration not stated),-3,2.2,?,.,-0.6%,0.9,11%
CCCCNC(=O)Cn1c2c(c(-c3ccccc3Cl)cc1=O)CCC2,-2,3.2,-15,4.3%,0.6%,0.2,-3%
CCOC(=O)c1c(-c2ccccc2)oc2ccc(OCC(O)CNCCN(C)C)cc12 (configuration not stated),5,5.5,20,35µM*,-4.0%,-1.4,-30%
Cc1ccc(-c2cc(N)n(-c3ccc(C)cc3)n2)cc1,19&-5,2.8,2,-1.0%&-1.0%,2.6%&1.5%,1.2&-1.3,20%
CCN(CC)CCNC(=O)Cn1nc(-c2ccc(C)cc2)ccc1=O,-8,3.9,-49,?,0.0%[38.3 µM],0.2,11%
CCc1ccc(CN(Cc2ccco2)c2cnc(S(C)(=O)=O)nc2C(=O)Nc2ccccc2Cl)cc1,16,.,.,-12%,-1.4%,0.7,.
CC(C)C(C)NC(=O)CSc1nnc(-c2c[nH]c3ccccc23)o1 (configuration not stated),16,0.6,-1,.,-0.4%,0.7,-3%
O=C(NC1CCCCC1)C(=O)N(Cc1cccnc1)C(C(=O)NCc1ccco1)c1ccccc1 (configuration not stated),.,3.8,0,.,.,.,16%
C=CCc1cc(Cl)ccc1OCCN(C)C,4,1.1,-11,-2.5%,9.9%[38.3 µM],-0.2,-10%
CCOC(=O)C1CCCN(S(=O)(=O)c2nc3nc(C)cc(C)n3n2)C1 (configuration not stated),1,.,7,-0.5%,-0.3%,0.8,15%

# Screening data (PubChem BioAssay)
